Compound activity from PubChem.
RGS4 inh: RGS4 inhibitors, primary screen, cell-based, HEK293 M3R inducible RGS4, calcium flux | Regulator of G-protein signaling 4 (Homo sapiens), P49798 | Fluo-4 calcium flux; hits give high values; triggered by carbachol at its EC20 | B-score at 10 µM | 0.45% of 310,000 active;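 active = B-score, a plate-corrected calcium signal, over three deviations above library mean, with baseline fluorescence within five deviations of library mean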;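 note: RGS4 expression induced by doxycycline in cells with stable M3 receptor; B-score is computed from the integrated fluorescence ratio over baseline after carbachol; higher B-score means a larger calcium signal and so more RGS4 inhibition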
KCNQ1 inh: inhibitors of human KCNQ1 channel, primary screen, cell-based, thallium flux, high-throughput; 1.3% of 310,000 active; B-score at 10 µM; Potassium voltage-gated channel subfamily KQT member 1 (Homo sapiens), P51787; CHO-K1 KCNQ1, FluxOR thallium flux fluorescence; hits give high values;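 active = compounds whose thallium flux B-score, printed positive for inhibition, exceeds three library SD while starting fluorescence stays within three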;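 note: channel opened by potassium depolarization with thallium stimulus after 20 min compound exposure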
Target sequence (P51787 whole entry, looked up): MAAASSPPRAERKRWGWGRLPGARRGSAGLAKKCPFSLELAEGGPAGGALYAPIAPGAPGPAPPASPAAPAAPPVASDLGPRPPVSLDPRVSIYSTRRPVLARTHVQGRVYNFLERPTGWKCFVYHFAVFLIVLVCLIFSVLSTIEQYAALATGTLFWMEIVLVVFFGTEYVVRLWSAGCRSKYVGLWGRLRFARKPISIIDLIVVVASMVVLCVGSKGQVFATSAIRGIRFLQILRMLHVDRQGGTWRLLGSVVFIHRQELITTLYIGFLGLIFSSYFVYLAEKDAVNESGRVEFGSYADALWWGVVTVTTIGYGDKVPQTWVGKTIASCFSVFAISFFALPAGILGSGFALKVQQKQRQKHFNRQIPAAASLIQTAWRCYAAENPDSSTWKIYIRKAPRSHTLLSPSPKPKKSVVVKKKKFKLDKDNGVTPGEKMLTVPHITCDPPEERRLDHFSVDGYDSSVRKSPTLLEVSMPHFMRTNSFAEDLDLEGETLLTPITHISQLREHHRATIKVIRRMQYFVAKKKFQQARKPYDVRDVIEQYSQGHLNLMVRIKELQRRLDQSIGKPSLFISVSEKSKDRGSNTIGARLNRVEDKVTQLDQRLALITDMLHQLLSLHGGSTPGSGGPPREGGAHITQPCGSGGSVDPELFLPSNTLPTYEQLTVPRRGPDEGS
TMEM16A act: TMEM16A chloride channel activators or potentiators, primary screen, cell-based, HTS. Anoctamin-1 (Mus musculus), Q8BHY3. HEK293 TMEM16A/YFP-H148Q/I152L, iodide quench fluorescence; hits give low values. B-score at 10 µM. 0.3% of 340,000 active. AID 623877, 2012;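 active = fluorescence-ratio B-score plate-corrected deviation score at least 3 library SD below zero, with starting fluorescence score within 5 deviations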;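 note: channel opened by trigger with iodide after compound preincubation; score built on the fluorescence ratio of max minus min over baseline; more negative score means more quench and so TMEM16A activation or potentiation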
HDAC3 inhib: HDAC3 deacetylase inhibitors, primary screen, biochemical, fluorescence, cell-free homogeneous; inhibition, % at 8.3 µM; 0.15% of 320,000 active; recombinant HDAC3, fluorogenic peptide/trypsin coupled; in the data active = inhibition above about 26%, passing the limit was not always enough
Target sequence (O15379 whole entry, looked up): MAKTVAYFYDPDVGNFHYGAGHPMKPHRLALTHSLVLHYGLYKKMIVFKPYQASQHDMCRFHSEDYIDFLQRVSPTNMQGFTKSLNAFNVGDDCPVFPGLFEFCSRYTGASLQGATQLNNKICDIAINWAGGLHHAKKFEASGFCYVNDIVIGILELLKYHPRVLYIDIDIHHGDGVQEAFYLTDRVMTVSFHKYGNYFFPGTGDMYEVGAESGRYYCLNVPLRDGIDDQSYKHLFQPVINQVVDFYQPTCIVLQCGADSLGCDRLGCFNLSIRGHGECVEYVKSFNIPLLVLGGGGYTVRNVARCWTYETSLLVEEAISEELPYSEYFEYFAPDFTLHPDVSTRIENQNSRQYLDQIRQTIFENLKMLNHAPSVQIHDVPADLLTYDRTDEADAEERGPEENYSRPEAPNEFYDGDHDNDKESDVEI
KCNQ1 pot: potentiators or activators of KCNQ1 channel, primary screen, cell-based, thallium flux, high-throughput; B-score at 10 µM; AID 2648, 2010; CHO-K1 KCNQ1, thallium flux FluxOR fluorescence; hits give high values; 0.35% of 310,000 active;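 active = fluorescence ratio B-score, a plate-corrected score, at least three library SD, with initial intensity B-score within 5 SD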
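assay system = CHO-K1 cells stably expressing KCNQ1 | medium = assay buffer, equal DMSO in all wells | timing = 37 °C overnight plating, 90-min dark dye load, 20-min compound pretreatment | measured by = kinetic FluxOR thallium fluorescence, 10-s 1-Hz baseline, 110-s post-stimulus read | measure = fluorescence change relative to baseline, converted to B score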
ANO1 block: TMEM16A chloride channel inhibitors, primary screen, cell-based, HTS | Anoctamin-1 (Mus musculus), Q8BHY3 | HEK293 TMEM16A/YFP iodide influx fluorescence, ionomycin | normalized B-score (activity score, 25-100; higher = stronger inhibition) at 10 µM | 1.2% of 310,000 active | AID 588511, 2011;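 active = ratio plate-corrected score three or more library SD toward inhibition, starting fluorescence score within five deviations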;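 note: score derived from kinetic fluorescence span divided by baseline fluorescence per well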
KCNK3 inh: human KCNK3 channel inhibitors, primary screen, CHO cells, FluxOR thallium flux, B-score | B-score at 10 µM | Potassium channel subfamily K member 3 (Homo sapiens), O14649 | 0.84% of 340,000 active | FluxOR fluorescence; hits give low values;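 active = B-score under library mean minus 4 SD, starting fluorescence ratio at most library mean plus 5 SD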;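 note: more negative B-score means stronger inhibition of thallium flux through KCNK3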
KCNK9 inh: KCNK9 potassium channel inhibitors, primary screen, HEK293 cells, thallium flux | 1.2% of 310,000 active | Potassium channel subfamily K member 9 (Homo sapiens), Q9NPC2 | FluxOR thallium flux fluorescence; hits give low values | AID 488922, 2010 | B-score at 10 µM;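 active = ratio B-score over 3 SD below the library mean, with starting fluorescence within 5 SD of its mean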;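 note: negative B-score means less thallium flux so channel inhibition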
RGS4 act: RGS4 potentiators or activators, primary screen, cell-based, HEK293 M3R inducible RGS4, calcium flux; B-score at 10 µM; 0.92% of 310,000 active; carbachol calcium flux Fluo4; hits give low values;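 active = B-score of the integrated calcium signal more than 4 SD below the library mean, with starting fluorescence not abnormally high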;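 note: negative B-score means reduced calcium response which marks RGS4 activation or potentiation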
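test system = M3R-expressing HEK293 line, RGS4 induced by doxycycline | probe or stimulus = carbachol at ECmax as muscarinic agonist stimulus | timing = dye loading 30 min 37 °C, buffer rest 30 min RT | signal = calcium dye Fluo4 fluorescence | evaluation = B score from integrated fluorescence ratio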
SKKanGAS inh: S. pyogenes SKKanGAS growth inhibitors in kanamycin, primary screen, streptokinase expression inhibitor project, SKKanGAS strain, BacTiter-Glo luminescence | inhibition, % at 7.5 µM | AID 1662, 2009 | 6 h | 1.3% of 300,000 active;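 active = mean replicate score, as percent of positive control median, at least 50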;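 note: strain carries kanamycin resistance gene driven by streptokinase promoter and grows in 40 µg/ml kanamycin; loss of luminescence reflects streptokinase promoter inhibition or plain growth inhibition; 0% = median of DMSO wells and 100% = positive control at its reference dose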
Numbers without * were called inactive; i = inactive; nt = no result given; & = joins results of further samples. Only part of the results is shown. The share of hits here may be higher or lower than overall.

SMILES	RGS4 inh	KCNQ1 inh	TMEM16A act	HDAC3 inhib	KCNQ1 pot	ANO1 block	KCNK3 inh	KCNK9 inh	RGS4 act	SKKanGAS inh
CC(=O)O[C@H]1C(=O)[C@]2(C)[C@H]([C@H](OC(=O)c3ccccc3)[C@]3(O)C[C@H](OC(=O)[C@H](O)[C@@H](NC(=O)c4ccccc4)c4ccccc4)C(C)=C1C3(C)C)[C@]1(OC(C)=O)CO[C@@H]1C[C@@H]2O	i	i	i	4.9	i	i	i	i	i	1.4
CC(C)n1c(/C=C/[C@H](O)C[C@H](O)CC(=O)O)c(-c2ccc(F)cc2)c2ccccc21	nt	nt	i	-3.8	nt	nt	i	nt	nt	nt
C/C(=N/OCO/N=C(/C)c1ccc(F)cc1)c1ccc(F)cc1	i	i	i	1.2	i	i	i	i	i	12.2
CO[C@H]1C=CO[C@@]2(C)Oc3c(C)c(O)c4c(O)c(c5c(nc6cc(C)ccn65)c4c3C2=O)NC(=O)C(C)=CC=C[C@H](C)[C@H](O)[C@@H](C)[C@@H](O)[C@@H](C)[C@H](OC(C)=O)[C@@H]1C	i	i	nt	nt	i	nt	nt	i	i	104.7*
O=C(O/N=C\c1ccc(N2CCCCC2)c([N+](=O)[O-])c1)c1cccc(Cl)c1	i	i	i	3.3	i	i	i	i	i	5.7
CCC(C)(C)NC(=O)C(c1ccc(C)o1)N(Cc1cccs1)C(=O)Cn1nnc2ccccc21 (stereo not given)	i	i	i	3.0	i	i	i	i	i	-9.0
O=[n+]1cc(-c2ccccc2)n([O-])c2c1CCCCC2	i	i	i	3.4	i	i	i	i	i	4.5
CC(C)(C)NC(=O)[C@@H]1CN(Cc2cccnc2)CCN1C[C@@H](O)C[C@@H](Cc1ccccc1)C(=O)N[C@H]1c2ccccc2C[C@H]1O	i	i	i	-0.3	i	i	i	i	i	0.9
O=C(O)CSCC(=O)NCc1ccc(Cl)cc1Cl	i	i	i	4.6	i	i	i	i	i	3.0
COC(=O)c1ccc(C23CC4(C2)[C@H](CN(Cc2cccnc2)[C@@H]4c2ccccc2)C3c2ccc(Cl)nc2)cc1 (stereo not given in full)	i	i	i	4.8	i	i	i	i	i	14.5
CC12C=CC(=O)C=C1CCC1C2C(=O)C[C@@]2(C)C1CCC2(O)C(=O)CO (stereo not given in full)	i	i	i	-8.3	i	i	i	i	i	3.4
CCOC(=O)N1CCN(C(=O)c2ccc3c(=O)n(-c4ccc(F)cc4)c(=S)[nH]c3c2)CC1	i	i	i	5.7	i	i	i	i	i	6.7
O[C@@H](c1cc(C(F)(F)F)nc2c(C(F)(F)F)cccc12)[C@H]1CCCCN1	5.71*	i	i	-5.1	i	i	i	i	i	-2.2
Cc1ccc(CNc2ccc(O)cc2)cc1	i	i	i	nt	i	nt	i	i	i	20.9
CCCCOc1ccc(OCCCN2CCOCC2)cc1	i	i	i	-2.0	i	i	i	i	i	-0.9

Full records, looked up by structure:
`O=C(O)CSCC(=O)NCc1ccc(Cl)cc1Cl` as listed: RGS4 inh = i; KCNQ1 inh = i; TMEM16A act = i; HDAC3 inhib = 4.6; KCNQ1 pot = i; ANO1 block = i; KCNK3 inh = i; KCNK9 inh = i; RGS4 act = i; SKKanGAS inh = 3.0
`CCOC(=O)N1CCN(C(=O)c2ccc3c(=O)n(-c4ccc(F)cc4)c(=S)[nH]c3c2)CC1` as listed: RGS4 inh = i; KCNQ1 inh = i; TMEM16A act = i; HDAC3 inhib = 5.7; KCNQ1 pot = i; ANO1 block = i; KCNK3 inh = i; KCNK9 inh = i; RGS4 act = i; SKKanGAS inh = 6.7
`CC(C)n1c(/C=C/[C@H](O)C[C@H](O)CC(=O)O)c(-c2ccc(F)cc2)c2ccccc21` as listed: RGS4 inh = nt; KCNQ1 inh = nt; TMEM16A act = i; HDAC3 inhib = -3.8; KCNQ1 pot = nt; ANO1 block = nt; KCNK3 inh = i; KCNK9 inh = nt; RGS4 act = nt; SKKanGAS inh = nt

Following part.
SMILES	RGS4 inh	KCNQ1 inh	TMEM16A act	HDAC3 inhib	KCNQ1 pot	ANO1 block	KCNK3 inh	KCNK9 inh	RGS4 act	SKKanGAS inh
CCC1(c2ccc(F)cc2)NC(=O)N(CC(=O)Nc2cc(S(=O)(=O)N(C)C)ccc2Cl)C1=O (stereo not given)	i	i	i	-1.3	i	i	i	i	i	-0.6
CN(C)C(=O)Oc1ccc[n+](C)c1	i	i	i	-1.7	i	i	i	i	i	2.1
CCOC(=O)/C(=C\c1ccc([N+](=O)[O-])o1)NC(=O)c1ccccc1	i	i	i	-5.6	i	i	i	i	i	2.0
O=C(O)c1cccc(-n2cccc2/C=C2/SC(=O)N(CC(=O)N3CCCC3)C2=O)c1	i	i	i	1.7	i	i	i	i	i	8.1
COc1ccc(NC(=O)CCCNC(=O)Cn2cnc3sc(C)c(C)c3c2=O)cc1Cl	i	i	i	9.7	i	i	i	i	i	2.0
C=CCS(=O)(=O)N1CCC(CCOc2ccccc2)(C(=O)OCC)CC1	i	i	i	9.8	i	i	i	i	i	2.2
CC(C)C(=O)NC(Nc1cc(C(F)(F)F)ccc1Cl)C(Cl)(Cl)Cl (stereo not given)	i	i	i	8.8	i	i	i	i	i	4.3
CCOc1ccc(N(CC(=O)NCCOc2ccc(C)cc2)S(=O)(=O)c2ccccc2)cc1	i	i	i	2.8	i	i	i	i	i	46.8
COC(=O)CCC(=O)CN	i	i	i	8.1	i	i	i	i	i	-1.5
C=CCn1c(C(CC)CC(C)(C)O)n[nH]c1=S (stereo not given)	i	i	i	-13.4	i	i	i	i	i	-0.6
Cc1sc2c(c1C)CN(C(C)(C)C)CN2C(=O)c1ccccc1	i	i	i	-0.3	i	i	i	i	i	-1.3
OC(Cn1cncn1)(Cn1cncn1)c1ccc(F)cc1F	i	i	i	3.0	i	i	i	i	i	-0.7
O=C1CC(N2CCN(c3nc4ccccc4s3)CC2)C(=O)N1c1cccc(F)c1 (stereo not given)	i	i	i	nt	i	i	i	i	i	11.6
CN=C(Nc1cc(C)nn1-c1ccccc1)c1ccccc1F	i	i	i	7.5	i	i	i	i	i	-1.5
C[C@]12C=CC(=O)C=C1CC[C@@H]1[C@@H]2C(=O)C[C@@]2(C)[C@H]1CC[C@]2(O)C(=O)CO	i	i	i	6.2&-5.2	i	i	i	i	i	-3.2
CCOc1cc(/C=N/n2cnnc2)ccc1OC(=O)c1cccc([N+](=O)[O-])c1	i	i	i	-1.0	i	i	i	i	i	7.2
NS(=O)(=O)c1ccc(NC(=O)c2ccccc2C(=O)N2CCCCC2)cc1	i	i	i	-5.0	i	i	i	i	i	2.2
CC(C)Oc1ccc2c(=O)c(-c3ccccc3)coc2c1	i	i	i	-4.4	i	i	i	i	i	-4.7
Nc1ccn([C@@H]2O[C@H](CO)[C@@H](O)[C@H]2O)c(=O)n1	nt	nt	i	nt	nt	nt	i	nt	nt	nt
CCCCc1nc(Cl)c(CO)n1Cc1ccc(-c2ccccc2-c2nnn[nH]2)cc1	i	i	i	-1.4	i	i	i	i	i	1.3
OCCOCCN1CCN(C2=Nc3ccccc3Sc3ccccc32)CC1	i	i	i	-11.6&-2.7	i	i	i	i	i	-1.7&-4.0
O=C(CSCc1ccc([N+](=O)[O-])cc1)NN=C1CCCCCC1	i	i	i	4.4	i	i	i	i	i	-1.6
Cc1ncc([N+](=O)[O-])n1CC(O)CCl (stereo not given)	i	i	i	-5.6	i	i	i	i	i	2.0
CN1CCN(CC(=O)N2c3ccccc3C(=O)Nc3cccnc32)CC1	i	i	nt	-7.2	i	i	nt	i	i	1.7
COc1ccc(Nc2nc(N)nc(CCl)n2)cc1	i	i	i	9.9	i	i	i	i	i	-0.4
CC(C)NCC(O)c1ccc(NS(C)(=O)=O)cc1 (stereo not given)	i	i	i	6.5	i	i	i	i	i	-5.7
CCC(=O)NC(=S)Nc1ccc(NC(=O)c2ccco2)c(Cl)c1	i	i	i	6.3	i	i	i	i	i	-6.4
O=C1CCc2ccc(OCCCCN3CCN(c4cccc(Cl)c4Cl)CC3)cc2N1	i	i	i	1.8	i	i	i	i	-9.17*	10.3
C=CCC(C#N)(c1ccc(OC)c(OC)c1)c1cnccn1 (stereo not given)	i	i	i	-3.9	i	i	i	i	i	0.9
CC(C)NC[C@@H](O)COc1cccc2ccccc12	i	i	i	6.9	i	i	i	i	i	1.5
Nc1nc2ccc(OC(F)(F)F)cc2s1	i	i	i	1.5&-2.9	i	i	i	i	i	-0.8&1.1
O=C(Cn1c2ccccc2c(=O)c2cc([N+](=O)[O-])ccc21)Nc1ccccc1Cl	i	i	i	-1.0	i	i	i	i	i	10.1
CC(=O)Nc1ccc(S(=O)(=O)NC2(C(F)(F)F)C(=O)Nc3c2c(=O)[nH]c(=O)n3Cc2ccco2)cc1 (stereo not given)	i	i	i	-2.1	i	i	i	i	i	-4.2
O=C(c1ccc(F)cc1)C1CCN(C(=O)c2ccccc2F)CC1	i	i	i	3.5	i	i	i	i	i	-2.8
Nc1ncnc2c1ncn2C1OC(CO)C(O)C1O (stereo not given)	9.44*	i	i	-1.4	i	i	i	i	i	2.2
CN(C)CCC(c1ccc(Cl)cc1)c1ccccn1 (stereo not given)	i	i	i	-0.2&1.2&-1.3	i	i	i	i	i	-4.6&3.0
N[C@H]1CONC1=O	i	i	nt	-1.8	i	i	nt	i	i	2.1
Cc1ccc(/C(=C\CN2CCCC2)c2ccccn2)cc1	i	i	i	-5.0	i	i	i	i	i	-3.3
CN1CCC(OC(c2ccccc2)c2ccccc2)CC1	i	i	i	-2.7	i	i	i	i	i	0.2
CC1CCCC(C)N1C(=S)NCc1ccco1 (stereo not given)	i	i	i	1.6	i	i	i	i	i	1.4
O=C(Nc1nc2cc3c(cc2s1)OCCO3)c1ccncc1	i	i	i	-0.3	i	i	i	i	i	nt
O=C1/C(=C\c2ccc(C(F)(F)F)cc2)CSc2sccc21	i	i	i	0.2	i	i	i	i	i	47.1
CCCCCC[N+](C)(C)CCSSCC[N+](C)(C)CCCCCC	i	i	i	-5.1	i	i	i	i	i	3.9
